Source: PubChem
Env fusion inh – HIV envelope-mediated fusion inhibition. HeLa-JRFL Env/CEM21 cell fusion, luciferase. inhibition, % at 12.3 µM. 360,000 compounds, 1.1% hits;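 active = mean replicate inhibition score of at least 50 and every replicate individually at or above 50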;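 note: 0% = plate neutral controls and 100% = maraviroc near 300 nM; one replicate is shown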
An asterisk follows results filed as active; [ ] = dose if it differs, or a comment.

mol | Env fusion inh
C[C@H]1CN([C@@H](C)CO)C(=O)c2cc(NC(=O)CCCN(C)C)ccc2O[C@@H]1CN(C)S(C)(=O)=O | -4.9[16.7 µM]
CO[C@H](CN(C)Cc1cc(F)ccc1F)[C@H](C)CN([C@@H](C)CO)S(=O)(=O)c1ccc(F)cc1 | 41.2[16.7 µM]
O=C(NCC[C@H]1CC[C@@H](NC(=O)C2CCOCC2)[C@H](CO)O1)c1cc(Cl)cc(Cl)c1 | -4.6[16.7 µM]
C=CCCC(=O)N1C[C@H]2CCN(C)[C@H]2C[C@H]1c1ccccc1Br | 7.8
CC(C)c1cn(CC[C@H]2CC[C@H](NC(=O)C3CC3)[C@H](CO)O2)nn1 | -43.5[16.7 µM]
OC(c1ccccc1)(c1ccccc1)C1CCN(CCCOc2ccc(-c3cccnc3)cc2)CC1 | 3.9
C[C@@H]1CN([C@@H](C)CO)C(=O)c2cc(NC(=O)Nc3cccc4ccccc34)ccc2O[C@@H](C)CCCCO[C@H]1CN(C)S(=O)(=O)c1cccs1 | -3.2[16.7 µM]
COCC(=O)N1C[C@H]2CON(C)[C@H]2C[C@H]1c1cccc(-c2cc(Cl)cc(Cl)c2)c1 | 21.9
C[C@@H]1CN([C@@H](C)CO)S(=O)(=O)c2ccc(C#CC3CC3)cc2O[C@@H]1CN(C)Cc1cncnc1 | 14.2[16.7 µM]
N#C[C@@H]1[C@H](c2ccc(C3=CCCCC3)cc2)[C@@H](CO)N1C(=O)NC1CCCC1 | -5.9[16.7 µM]
COc1cccc(S(=O)(=O)Nc2ccc3c(c2)[C@@H]2C[C@@H](CC(=O)N4CCCCC4)O[C@H](CO)[C@@H]2O3)c1 | 9.7[16.7 µM]
Cc1cc(N2CCN(S(C)(=O)=O)C[C@H]2C)ccc1N1CCN(Cc2ccccc2)[C@H](C)C1 | 0.4
CCS(=O)(=O)Nc1ccc2c(c1)C(=O)N(C)C[C@@H](OC)[C@@H](C)CN(CCC(F)(F)F)[C@@H](C)CO2 | 16.3[16.7 µM]
CC(C)NC(=O)N(C)C[C@H]1OCCCC[C@@H](C)Oc2ccc(NC(=O)Cc3ccccc3)cc2C(=O)N([C@@H](C)CO)C[C@@H]1C | -19.1[16.7 µM]
COc1ccccc1S(=O)(=O)N(C)C[C@H]1OCc2ccccc2-c2ccccc2C(=O)N([C@@H](C)CO)C[C@@H]1C | -44.4[16.7 µM]
CN(C)CC#Cc1cccc(-c2nc(C(=O)N3CCN(C)CC3)cc3c2[C@@H](CCO)N(S(=O)C(C)(C)C)C3)c1 (stereo not given in full) | -4.3[16.7 µM]
O=C(Nc1ccc2c(c1)[C@@H]1C[C@H](CC(=O)N3CCc4ccccc4C3)O[C@H](CO)[C@@H]1O2)C1CCOCC1 | -0.4[16.7 µM]
O=C(/C=C(\Nc1cccc(C(F)(F)F)c1)c1ccccc1)c1ccccc1 | 18.4
C[C@@H]1CN([C@@H](C)CO)C(=O)c2cc(NC(=O)c3ccccc3)ccc2O[C@@H](C)CCCCO[C@H]1CN(C)S(=O)(=O)c1ccc(F)cc1 | 0.1[16.7 µM]
CO[C@H]1CN(C)C(=O)c2cccc(C#N)c2OCC[C@H]2CC[C@@H](OC)[C@@H](CN(C)C(=O)[C@@H]1C)O2 | -3.8[16.7 µM]
CC(C)(C)[S@](=O)N1Cc2cc(C(=O)N3CCOCC3)nc(-c3cccc(-c4ccccc4F)c3)c2[C@@H]1CCO | -6.3[16.7 µM]
C[C@H](O)[C@@H]1C(=O)N2CCc3c([nH]c4c(-c5ccccc5)cccc34)[C@@H]2C[C@@H]1N(C)C(=O)Nc1ccccc1 | -2.7
Cc1noc(C)c1NC(=O)Nc1cccc2c1O[C@@H](CN(C)S(=O)(=O)c1ccccc1)[C@@H](C)CN([C@@H](C)CO)C2=O | 2.7[16.7 µM]
C[C@H](C(=O)N(C)C[C@@H]1OCc2ccccc2-c2ccccc2C(=O)N([C@H](C)CO)C[C@H]1C)c1ccccc1 | 51.8[16.7 µM]
COc1ccc2c3c([nH]c2c1)[C@H](CO)N(C(=O)c1ccncc1)CC31CCN(Cc2cccnc2)CC1 | -7.0[16.7 µM]

Part of the list above, reformatted:
Env fusion inh	Compound
18.4	O=C(/C=C(\Nc1cccc(C(F)(F)F)c1)c1ccccc1)c1ccccc1
0.1[16.7 µM]	C[C@@H]1CN([C@@H](C)CO)C(=O)c2cc(NC(=O)c3ccccc3)ccc2O[C@@H](C)CCCCO[C@H]1CN(C)S(=O)(=O)c1ccc(F)cc1
-3.8[16.7 µM]	CO[C@H]1CN(C)C(=O)c2cccc(C#N)c2OCC[C@H]2CC[C@@H](OC)[C@@H](CN(C)C(=O)[C@@H]1C)O2

(list continues)
mol | Env fusion inh
Cc1noc(C)c1S(=O)(=O)N(C)C[C@@H]1OCc2ccccc2-c2ccccc2C(=O)N([C@@H](C)CO)C[C@@H]1C | 51.6[16.7 µM]
CN1c2ccc(-c3cccc(C#N)c3)cc2[C@H]2[C@H](CCN2C(=O)C2CCCC2)[C@H]1CO | 21.8[16.7 µM]
CC(C)NC(=O)Nc1ccc2c(c1)C(=O)N([C@H](C)CO)C[C@H](C)[C@H](CN(C)CC1CCCCC1)OCCCC[C@H](C)O2 | -22.1[16.7 µM]
COc1ccc2c3c(n(C)c2c1)[C@H](CO)N(C(=O)Nc1cccc(F)c1)CC31CCN(Cc2nccs2)CC1 | 8.0[16.7 µM]
COc1ccc(NC(=O)N(C)C[C@H]2Oc3c(NC(=O)c4cc(C)nn4C)cccc3C(=O)N([C@H](C)CO)C[C@@H]2C)cc1 | 14.4[16.7 µM]
COc1ccc(S(=O)(=O)NC[C@@H]2CC[C@H]3[C@H](CN3Cc3cc(F)ccc3F)O2)cc1 | 59.9*[16.7 µM]
CCCNC(=O)N1C[C@@H](C)[C@@H](OC)CN(C)C(=O)c2ccc(NC(=O)C3CCC3)cc2OC[C@H]1C | 11.2[16.7 µM]
c1ccc(-c2nc3ccccc3nc2-c2ccc(CN3CCC4(CC3)CNc3ccccc34)cc2)cc1 | 9.7
C[C@H]1CN([C@@H](C)CO)C(=O)Cc2cc(NC(=O)Cc3cn(C)c4ccccc34)ccc2O[C@@H]1CN(C)S(=O)(=O)c1ccc(Cl)cc1 | 1.4[16.7 µM]
O=C(N[C@H]1C=C[C@@H](CC(=O)N2CCc3ccccc3C2)O[C@@H]1CO)C1CC1 | 10.1[16.7 µM]
C[C@@H]1CN([C@H](C)CO)C(=O)c2cc(NC(=O)Cc3ccccc3)ccc2O[C@H]1CN(C)Cc1ccc(C(=O)O)cc1 | -5.9[16.7 µM]
CN1CCN(C(=O)C[C@H]2C=C[C@H](NS(=O)(=O)c3cccc(F)c3)[C@@H](CO)O2)CC1 | -10.7[16.7 µM]
C=CCOC(=O)C(=O)/C=C/c1ccc(F)cc1 | -24.4[16.7 µM]
COc1ccc(CN(C)C[C@H]2Oc3ccc(NC(=O)Cn4cnnn4)cc3C(=O)N([C@H](C)CO)C[C@@H]2C)cc1 | -2.8[16.7 µM]
CCS(=O)(=O)Nc1ccc2c(c1)C(=O)N(C)[C@H]1CC[C@@H](CC(=O)N[C@@H]3CCN(Cc4ccccc4)C3)O[C@@H]1CO2 | 0.7[16.7 µM]
CO[C@H]1CN(C)C(=O)c2ccc(NS(C)(=O)=O)cc2OC[C@H](C)N(C(=O)NC(C)C)C[C@@H]1C | 19.9[16.7 µM]
C[C@H]1CN([C@@H](C)CO)C(=O)c2cc(/C=C/c3ccccc3)cnc2O[C@@H]1CN(C)C(=O)C1CC1 | -8.3[16.7 µM]
CO[C@@H]1CN(C)C(=O)c2cc(NC(=O)c3ccno3)ccc2OC[C@@H](C)N(S(C)(=O)=O)C[C@@H]1C | 0.3[16.7 µM]
Cc1noc(C)c1S(=O)(=O)Nc1ccc2c(c1)C(=O)N([C@@H](C)CO)C[C@H](C)[C@H](CN(C)Cc1ccc(C(F)(F)F)cc1)OCCCC[C@H](C)O2 | 18.1[16.7 µM]
Clc1ccc(Nc2nnc(-c3ccc4c(c3)OCO4)o2)cc1 | -134.8
CO[C@H]1CN(C)C(=O)c2ccc(NC(=O)c3nc4ccccc4s3)cc2OC[C@H](C)NC[C@H]1C | -4.5[16.7 µM]
Cc1ccc(S(=O)(=O)N(C)C[C@H]2Oc3ccc(NC(=O)Cn4cnnn4)cc3C(=O)N([C@@H](C)CO)C[C@@H]2C)cc1 | -19.7[16.7 µM]
CO[C@@H]1CC[C@@H]2CCOc3c(C#N)cccc3C(=O)N(C)C[C@H](c3ccccc3)CC(=O)N(C)C[C@@H]1O2 | -11.5[16.7 µM]
CC1=C([C@H](O)c2ccccc2)[C@H](CO)n2c(=O)n(-c3ccccc3)c(=O)n2C1 | 0.3[16.7 µM]
COCC(=O)N1C[C@H](C)[C@@H](OC)CN(C)C(=O)c2cc(NC(=O)C3CCC3)ccc2OC[C@H]1C | 3.8[16.7 µM]

In the list so far, these have a CF3 group.
mol | Env fusion inh
CCS(=O)(=O)Nc1ccc2c(c1)C(=O)N(C)C[C@@H](OC)[C@@H](C)CN(CCC(F)(F)F)[C@@H](C)CO2 | 16.3[16.7 µM]
O=C(/C=C(\Nc1cccc(C(F)(F)F)c1)c1ccccc1)c1ccccc1 | 18.4
Cc1noc(C)c1S(=O)(=O)Nc1ccc2c(c1)C(=O)N([C@@H](C)CO)C[C@H](C)[C@H](CN(C)Cc1ccc(C(F)(F)F)cc1)OCCCC[C@H](C)O2 | 18.1[16.7 µM]

Next records:
mol | Env fusion inh
CN1C[C@H](O)COC[C@H]2O[C@H](CC(=O)NC3CCC3)CC[C@@H]21 | -1.9[16.7 µM]
C[C@H]1CN([C@@H](C)CO)C(=O)c2ccccc2-c2ccccc2CO[C@@H]1CN(C)C(=O)[C@H]1CCCN1C | -4.9[16.7 µM]
O=C(C[C@H]1CC[C@@H]2[C@H](COC[C@@H](O)CN2C(=O)c2ccccc2)O1)N1CCOCC1 | -26.2[16.7 µM]
O=C(NCc1ccc(F)cc1)[C@H]1[C@H](CO)[C@H]2Cn3c(cccc3=O)[C@@H]1N2C(=O)Cc1ccccn1 | -2.6[16.7 µM]
CC(C)NC(=O)N(C)C[C@H]1OCCCC[C@H](C)Oc2ccc(NC(=O)c3ccccc3)cc2C(=O)N([C@@H](C)CO)C[C@@H]1C | -25.2[16.7 µM]
O=C(C[C@H]1C=C[C@H](NC(=O)Nc2cccc(F)c2)[C@H](CO)O1)NCC1CCCCC1 | -3.1[16.7 µM]
N#C[C@@H]1[C@@H](c2ccccc2-c2ccccc2F)[C@@H](CO)N1C(=O)c1ccccn1 | 11.7[16.7 µM]
CO[C@H]1CN(C)C(=O)c2cc(NC(=O)C3CCCCC3)ccc2OC[C@@H](C)N(Cc2nccs2)C[C@H]1C | 4.5[16.7 µM]
C[C@H](O)[C@@H]1C(=O)N2CCc3c([nH]c4ccccc34)[C@@H]2C[C@@H]1N(C)C(=O)Nc1ccc(Br)cc1 | -36.6
CCS(=O)(=O)Nc1ccc2c(c1)C(=O)N(C)[C@@H]1CC[C@@H](CC(=O)N[C@H]3CCN(Cc4ccccc4)C3)O[C@H]1CO2 | 10.4[16.7 µM]
C[C@H]1CN([C@@H](C)CO)C(=O)c2cc(NC(=O)Cn3cnnn3)ccc2O[C@H]1CN(C)S(=O)(=O)c1ccccc1 | -2.4[16.7 µM]
Cc1cccc(S(=O)(=O)N[C@@H]2CC[C@H](CCNC(=O)c3cnccn3)O[C@@H]2CO)c1 | -1.4[16.7 µM]
CN1CCN(C(=O)C[C@H]2C[C@@H]3c4cc(NC(=O)c5ccc6c(c5)OCO6)ccc4O[C@@H]3[C@@H](CO)O2)CC1 | -13.5[16.7 µM]
O=C1NC(Cc2ccc(Cl)cc2)COCc2cnnn2CCC1c1ccccc1 (stereo not given) | 11.1[16.7 µM]
CO[C@H]1CC[C@H]2CCOc3ccc(C#N)cc3C(=O)N(C)C[C@H](OC)[C@@H](C)C(=O)N(C)C[C@H]1O2 | -12.4[16.7 µM]
C[C@@H]1CN([C@@H](C)CO)C(=O)Cc2cc(NC(=O)Nc3ccc4c(c3)OCO4)ccc2O[C@H]1CN(C)S(=O)(=O)c1ccccc1 | 12.9[16.7 µM]
O=C(C1CC1)N1[C@H](CO)[C@H](c2ccccc2)C12CN(CCC(F)(F)F)C2 | -11.9[16.7 µM]
COc1ccccc1CNC(=O)C[C@H]1C[C@H]2c3cc(NC(=O)Cc4ccncc4)ccc3O[C@H]2[C@@H](CO)O1 | -7.6[16.7 µM]
COc1cccc(C(=O)N[C@@H](CC(C)C)C(=O)N2CCC[C@H]2C(=O)NCc2ccccc2)c1 | -28.0
CN1C(=O)c2cc(NC(=O)Cc3ccccc3)ccc2OC[C@H]2O[C@@H](CC(=O)NCc3ccc(Cl)cc3)CC[C@@H]21 | -24.7[16.7 µM]
C[C@H](CO)N1C[C@H](C)[C@H](CN(C)S(=O)(=O)CC(F)(F)F)OCc2ccccc2-c2c(n(C)c3ccccc23)C1=O | 48.8[16.7 µM]
COc1ccc(NC(=O)N(C)C[C@@H]2Oc3ncc(-c4ccccc4)cc3C(=O)N([C@H](C)CO)C[C@@H]2C)cc1 | -1.0[16.7 µM]
CC1CCN(C(=O)c2ncn3c2C(=O)N[C@H](C)C3)CC1 | 71.9*
C/C=C/c1cnc2c(c1)C(=O)N([C@H](C)CO)C[C@H](C)[C@@H](CN(C)C(=O)C1CCC1)O2 | -9.2[16.7 µM]
O=C(NCC1CCCCC1)[C@H]1[C@H](CO)[C@H]2Cn3c(cccc3=O)[C@H]2N1C(=O)CC1CC1 | 8.9[16.7 µM]
CNC(=O)C[C@@H]1CC[C@@H]2[C@H](COC[C@@H](O)CN2Cc2ccc(Cl)c(Cl)c2)O1 | -1.0[16.7 µM]
C[C@H](CO)N1C[C@H](C)[C@@H](CN(C)Cc2ccccc2C(F)(F)F)OCc2cn(nn2)CCCC1=O | 0.4[16.7 µM]
COc1ccc(NC(=O)Nc2cccc3c2O[C@H](CN(C)Cc2ccc4c(c2)OCO4)[C@@H](C)CN([C@H](C)CO)C3=O)cc1 | -6.4[16.7 µM]

This is a subset. The share of hits here may be higher or lower than overall.
